# Compound activity as filed in PubChem.
# TRPML1 ag: agonists of human TRPML1 channel. 410,000 compounds, 0.12% hits. TRPML1-expressing cells, Ca2+ dye fluorescence, FDSS; host cell line not named in the record; reference of the full effect not given here. activation, % (no concentration beside the values); in the data active = activation above about 50%; inconclusive = about 30% to 50%; inactive = below about 30%; note: 0% is about no effect; the text of the record puts the active cut at 80%
# Target sequence (Q9GZU1 whole entry, looked up): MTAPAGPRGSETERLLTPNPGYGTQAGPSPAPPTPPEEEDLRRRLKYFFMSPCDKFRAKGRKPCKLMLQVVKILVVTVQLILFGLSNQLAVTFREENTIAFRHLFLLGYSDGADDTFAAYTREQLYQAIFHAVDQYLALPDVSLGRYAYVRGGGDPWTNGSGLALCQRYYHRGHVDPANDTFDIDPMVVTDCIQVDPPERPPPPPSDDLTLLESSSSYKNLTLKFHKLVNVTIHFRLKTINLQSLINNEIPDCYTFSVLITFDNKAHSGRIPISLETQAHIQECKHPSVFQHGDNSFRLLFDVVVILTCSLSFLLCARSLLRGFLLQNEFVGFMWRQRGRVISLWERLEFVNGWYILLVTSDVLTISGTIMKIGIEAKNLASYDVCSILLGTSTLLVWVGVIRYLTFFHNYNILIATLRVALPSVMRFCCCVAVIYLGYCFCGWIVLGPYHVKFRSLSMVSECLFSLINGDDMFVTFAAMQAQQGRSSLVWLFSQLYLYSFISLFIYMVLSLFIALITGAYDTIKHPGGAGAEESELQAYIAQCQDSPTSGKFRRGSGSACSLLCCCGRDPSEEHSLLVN
#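 Agonist activity was taken from a 110 s kinetic Ca2+ dye read on the FDSS after pinning compounds onto TRPML1-DL cells. The cells were seeded at 1,500/well with Tet inducer, incubated about 16 h, then dye-loaded at room temperature.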
# TRPML1 inh: human mucolipin-1 channel inhibition. Q9GZU1. TRPML1-inducible cells, Ca2+ dye fluorescence, FDSS; stronger effect = lower value; inhibition of EC80 agonist-evoked calcium signal. activity change, negative = inhibition, % (test concentration not listed). 390,000 compounds, 0.02% hits; in the data active means activity change below about -50%; inconclusive means about -30% to -50%; inactive means above about -30%;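 note: stimulus is agonist 54-4 at its EC80 concentration; % is set by controls: 0 for no effect and ±100 for the full control effect; compound concentration not given in the record; the text of the record puts the active cut at -80%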
#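 Calcium fluorescence in TRPML1-DL cells induced overnight with Tet: a 110 s read after compound pin addition, then a 110 s antagonist read after challenge with 54-4 at 4 uM final (EC80).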
# ClpP mod: qHTS Assay for Activators of ClpP | 340,000 compounds, 1.9% hits | ATP-dependent Clp protease proteolytic subunit (Bacillus subtilis (strain 168)), P80244 | AID 651965, 2013 | Potency, µM (series often up to 57.5 µM), without a hit: at the highest dose activity change, negative = active | purified B. subtilis ClpP, FRET peptide cleavage, 20 min; active = well fitted falling curve with a large enough effect; inconclusive = small, poorly fitted or top-dose-only effect; inactive = no such curve, though single readings can be large or run the other way; note: potency is the fitted concentration of half-maximal effect; the source files actives as falling curves though it sought activators and does not explain the sign; nearly all actives have a fitted effect of over 65% in size; many hits overshoot -100%
# Target sequence (P80244 whole entry, looked up): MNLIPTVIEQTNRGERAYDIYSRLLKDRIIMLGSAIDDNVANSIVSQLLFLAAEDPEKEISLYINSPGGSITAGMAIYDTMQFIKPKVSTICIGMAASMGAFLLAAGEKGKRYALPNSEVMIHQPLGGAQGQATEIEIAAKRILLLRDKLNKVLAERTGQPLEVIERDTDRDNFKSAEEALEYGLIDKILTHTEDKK
#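 Purified B. subtilis ClpP, 10 microg/mL final in Tris/HCl pH8 with KCl, BSA, glycerol and Tween-20, cleaved an Abz/nitrotyrosine-quenched decapeptide. Fluorescence (ex 320, em 430) was read at 0 and 20 min at room temperature. Delta was normalized to 5.8 microM ADEP and DMSO/no-enzyme controls.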
# Menin MLL FP FL: menin-MLL binding inhibition, fluorescein peptide. Fluorescence polarization, fluorescein-MLL peptide displacement from menin. FP activity change, % at 61.4 µM. 290,000 tested, under 10 active. AID 1766; inconclusive = falling polarisation curve, or a change in total fluorescence; inactive = total fluorescence flat and polarisation flat or rising; no compound was filed as active; the % refers to the polarisation; negative = inhibition;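 note: % of control where 0% means no effect; inhibitors lower the polarisation; unlabelled MLL peptide was the positive control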
# gsp ag: agonists of gsp mutant (McCune-Albright syndrome). gsp mutant cells, cAMP HTRF, 30 min; control for the full effect not named in the record. Potency, µM (titrated, usually from 76.9 µM), without a hit: at the top dose activation (cAMP increase), most hits filed as activators. 340,000 compounds, 0.13% hits; active = well fitted activation curve with a large enough effect; inconclusive = small, poorly fitted or top-dose-only effect, or another doubt; inactive = no such curve, though single readings can be large or run the other way; cell line not stated here;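 note: phosphodiesterase inhibitor Ro 20-1724 added with compounds to block cAMP breakdown; potency is the fitted concentration of half-maximal effect; nearly all actives have a fitted effect of over 60% in size; about a fifth of the inactives were tested at one dose only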
#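 Cells stably selected in G418 were plated at 2000/well, grown 16-24 hr, then given compounds in DMSO with the PDE inhibitor […] (300 uM solution added) for 30 min at 37C; cAMP was read by HTRF.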
# gsp antagonist: antagonizes gsp, the McCune-Albright syndrome mutation | gsp-mutant cells, cAMP HTRF, 30 min; control for the full effect not named in the record | Potency, µM (highest dose often 76.9 µM), for the others: at the highest dose activity change, negative = inhibition, most hits filed as inhibitors | 340,000 compounds, 0.4% hits | AID 624288; active = falling curve of any shape with a large fitted effect; inconclusive = falling curve, mostly with a smaller effect; inactive = flat or rising curve; cell line not stated here;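 note: intracellular cAMP measured with PDE inhibitor Ro 20-1724 present during compound exposure; potency is the fitted concentration of half-maximal effect; % is set by controls: 0 for no effect and ±100 for the full control effect; nearly all actives have a fitted effect of over 65% in size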
#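 HTRF cAMP read-out (cAMP-d2 plus anti-cAMP antibody-K in lysis buffer, 30 min RT). Before lysis, cells are exposed to compounds with […] for 30 min at 37C in DPBS containing Ca/Mg, BSA and Tween 20.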
# * marks the source's active call; other numbers are inactive results; ? = inconclusive; / = no result given; [ ] = remark or other dose. Compounds were not picked by outcome. Share with any hit: about 2.1%.
# Screens in order – TRPML1 ag	TRPML1 inh	ClpP mod	Menin MLL FP FL	gsp ag	gsp antagonist
O=C(NNC(=O)C1CCCN(c2ncccn2)C1)c1ccc(F)cc1 (stereo not drawn)
  -0.1	8.2	-5.6%	2.7	-24.3%	4.4%
COc1ccc(/C=C/C(=O)NCC(=O)N/N=C(/C)c2ccco2)cc1
  -0.6	-1.8	-9.3%	0.4	10.9%	3.5%
CN(c1ccccc1)P(=O)(N(C)c1ccccc1)N(C)c1ccccc1
  1.2	16.4	0.9%	-1.8	13.1%	-3.8%
COCCCNC(=O)COc1ccc(Br)cc1Cl
  -0.8	35.8	-1.6%	11.8	-1.5%	3.7%
CC(C)CN(C(=O)c1ccc(-n2cncn2)c([N+](=O)[O-])c1)C1CCS(=O)(=O)C1 (stereo not drawn)
  -0.5	-4.5	-0.9%	/	8.8%[15.4 µM]	12.2%
O=C(CNS(=O)(=O)c1cccs1)N1CCN(c2cccc(C(F)(F)F)c2)CC1
  1.4	1.5	-3.0%	/	/	/
Fc1ccc(C(c2nnnn2Cc2ccccc2)N2CCSCC2)cc1 (stereo not drawn)
  12.0	-0.4	0.5%	-0.9	5.3%	-15.9%
O=C(O)CCCCC1CCSS1 (stereo not drawn)
  -0.3	7.6	-1.2%	?	/	0.8%
COc1ccc(-c2ccc(SCC(=O)NC3CCCCC3)nn2)cc1
  -0.5	-8.2	/	-1.8	17.0%[15.4 µM]	-0.5%
S=C1NCCOCCOCCOCCN1
  -0.4	17.7	1.3%	-2.2	-1.4%	-6.1%
CCOC(=O)C1=C(C)N(C)C(=O)NC1c1c(C)nn(-c2ccc(C)cc2)c1Cl (stereo not drawn)
  4.5	8.4	-0.3%	-3.0	-0.6%	-25.0%
Cc1ccccc1NC(=O)CN(C)S(=O)(=O)c1ccc2c(c1)n(C)c(=O)c(=O)n2C
  -0.1	-4.4	-23.6%	/	64.0%	0.9%
CCc1cc(=O)oc2cc(OC(C)=O)cc(OC(C)=O)c12
  0.2	-14.8	239.7%	-0.2	10µM*	-1.1%
NC(=O)C1CCN(CC(=O)Nc2cccc(C(=O)Nc3cccc(C(F)(F)F)c3)c2)CC1
  0.3	-15.9	/	0.8	-1.9%[15.4 µM]	2.3%
CC(C)CN(CCCNC(=O)CN1N=C(c2ccccc2)CCC1=O)CC(C)C
  -0.4	33.6	1.0%	/	/	/
Cc1ccc(-c2noc(CCC(=O)NCCN3CCc4ccccc4C3)n2)cc1
  -0.2	-8.1	-2.1%	2.4	0.0%	-9.3%
C/C(=N/NS(=O)(=O)c1ccccc1)c1ccc(NC(=O)C(F)(F)F)cc1
  0.5	23.1	0.9%	0.7	-7.8%[15.4 µM]	8.5%
COc1ccccc1CCNC(=O)Cn1ccc2cc(S(=O)(=O)N3CCCCC3)ccc21
  1.3	-2.9	-10.0%	/	/	/
CCOC(=O)C(CC)Sc1c(CC)cnc2c1c(=O)n(C)c(=O)n2C (stereo not drawn)
  0.0	-27.8	0.6%	/	/	/
Fc1ccc(-c2nc3c(-c4ccc(Cl)cc4)cnn3cc2CCN2CCOCC2)cc1
  14.6	11.4	-0.7%	0.0	18.7%[15.4 µM]	-12.6%

# Next compounds follow:
# Screens in order – TRPML1 ag	TRPML1 inh	ClpP mod	Menin MLL FP FL	gsp ag	gsp antagonist
CCCCN(C)CCNC(=O)c1ccc2c(c1)NC(=O)C(N1CCCCC1)S2 (stereo not drawn)
  -0.1	2.0	0.4%	1.3	-39.0%[inhibitor]	3.5%
CC1CCN(C(=O)CSc2nnc(-c3ccco3)n2N)CC1
  -0.8	-11.7	0.2%	/	-16.1%	/
O=C(NCCN1CCOCC1)c1cccc(S(=O)(=O)NCc2ccccc2)c1
  0.0	-1.1	-1.6%	/	4.1%	-2.1%
CCOc1ccc(NC(=O)CSc2nnc(Cn3cnc([N+](=O)[O-])n3)n2C)cc1
  -0.4	37.3	1.5%	1.2	-3.7%[15.4 µM]	16.0%
COc1ccccc1NC(=O)CSC1=Nc2ccccc2C2=NC(CC(=O)NCc3cccs3)C(=O)N12 (stereo not drawn)
  3.5	1.0	7.6%	/	/	/
Cc1ccc(NC(=O)CN2C(=O)S/C(=C\c3cc(Cl)c(OCC(=O)O)c(Cl)c3)C2=O)cc1
  /	/	-3.8%	30.2[activator]	-10.4%	-1.7%
COc1ccc(S(=O)(=O)N(C)C[C@H]2Oc3c(NC(=O)C4CC4)cccc3C(=O)N([C@H](C)CO)C[C@@H]2C)cc1
  0.1	12.0	-3.2%	/	-5.8%	-6.6%
COc1ccc(C(CNC(=O)c2ccc(NS(=O)(=O)c3ccc4c(c3)OCCO4)cc2)N(C)C)cc1 (stereo not drawn)
  -0.5	9.2	-1.9%	/	-0.1%	-19.6%
CCCCNC(=O)CSc1nc2cc3c(cc2c(=O)n1CCCN(CC)CC)OCO3
  -0.7	6.1	-5.6%	3.3	24.0%	5.9%
O=C(N/N=C/c1ccc([N+](=O)[O-])o1)c1ccc(NS(=O)(=O)c2cccs2)cc1
  0.0	5.2	/	3.2	1.1%[15.4 µM]	-5.4%
Cc1ccc(NCC2(N=Cc3ccccc3)OC(CO)C(O)C2O)cc1 (stereo not drawn)
  -0.2	0.0	2.8%	/	-8.7%[15.4 µM]	5.9%
CC1=NN(Cc2ccccc2)C(=O)/C1=C\c1ccc(N(C)C)cc1
  -0.2	-2.6	-1.4%	9.1	-45.3%[inhibitor]	19.7%
Cc1nn(C)c(C)c1NC(=O)COc1ccc(Cl)cc1
  -0.3	-6.9	3.4%	/	-3.7%	3.1%
Cc1ccc(-c2nnc3n2N=C(c2ccccc2)CS3)cc1
  1.3	42.7	0.2%	2.4	-24.4%	-12.6%
O=C(O)CN1C(=O)/C(=C\c2cc(Br)ccc2OCc2ccc(Cl)cc2Cl)SC1=S
  0.2	40.5	1.0%	6.1	3.7%	?
Cc1ccc(C)c(OCC(=O)Nc2ccc(N3CCOCC3)cc2)c1
  0.1	-12.8	-0.4%	0.8	29.9%[15.4 µM]	-32.2%
C[C@@H](NC(=O)c1[nH]cnc1C(=O)Nc1ccon1)c1ccccc1
  0.6	5.8	-3.3%	/	-5.6%	3.3%
Nc1ncnc2c1ncn2[C@@H]1O[C@H](CN2CCCS2(=O)=O)[C@@H](O)[C@H]1O
  -0.3	-4.2	-0.8%	/	/	7.7%
COc1ccc(/C=N\NC(=O)COc2ccccc2)c(C(=O)O)c1OC
  -0.4	8.0	/	-0.7	?	-0.1%
N#Cc1c(Nc2ccccc2)s[nH]c1=O
  -0.1	6.1	-4.6%	7.7	10.8%[15.4 µM]	-3.1%

# Other records follow:
# Screens in order – TRPML1 ag	TRPML1 inh	ClpP mod	Menin MLL FP FL	gsp ag	gsp antagonist
O=C(c1cccnc1)N(Cc1ccccc1)C1(C(=O)Nc2ccccc2)CCCCC1
  -0.3	-10.7	-1.9%	1.7	-44.9%[inhibitor]	-0.2%
O=C(c1ccc2c(c1)OCO2)N1CCNc2ccccc2C1
  -0.2	-4.2	1.4%	0.7	-37.8%[inhibitor]	15.4%
Cc1ccc(C=C2C(Cl)=C(Cl)C(Cl)=C2Cl)cc1
  0.0	-2.7	/	10.3	-0.4%[15.4 µM]	1.2%
CCCOc1ccc(N2C(=O)CC(N3CCN(C(=O)c4ccco4)CC3)C2=O)cc1 (stereo not drawn)
  -0.2	13.5	1.3%	0.7	7.1%	1.6%
CCOc1ccccc1C1NC(=O)NC(C)=C1C(=O)OCc1ccccc1 (stereo not drawn)
  0.9	5.2	1.7%	1.7	-11.3%	-18.5%
CCOC(=O)C(=O)Nc1nnc(C2CCCCC2)s1
  0.8	22.8	1.1%	8.3	-0.7%	-13.3%
CC(C)NS(=O)(=O)c1cc(F)ccc1CN1C(=O)c2cccnc2C1=O
  2.9	-5.7	-1.5%	-3.1	12.6µM*	-4.3%
COc1ccc2nc(C)cc(SCC(=O)N3CCCCC3)c2c1
  1.1	4.9	-3.1%	0.7	22.4%	-9.7%
CCOC(=O)Nc1nn(-c2ccc(C)cc2)c(=O)c(C#N)c1C
  -0.8	2.6	-0.6%	2.7	-3.7%	2.4%
O=C(COC(=O)c1cnccn1)c1cccc([N+](=O)[O-])c1
  -1.1	-7.6	-0.3%	1.3	-19.8%	2.4%
COc1cc(C#Cc2c(-c3cncn3C)n(C)c3ccc(-c4ccc(CN5CCOCC5)cc4)cc23)cc(OC)c1
  -0.4	-2.8	4.5%	/	/	-4.4%
CCc1ccccc1Nc1nn2c(=O)c3ccc(C(=O)Nc4cc(C)cc(C)c4)cc3nc2s1
  0.5	9.0	1.9%	/	/	/
COc1ccccc1OCCNC(=O)C(CCSC)NS(=O)(=O)c1ccccc1F (stereo not drawn)
  -1.0	-0.1	-2.1%	/	?	8.1%
Cc1cccc(C2=NN(c3ccccc3)[C@@H](C(=O)N3CCOC3=O)[C@@H]2c2ccccc2)c1
  -0.5	43.2	?	?	/	-14.8%
Cc1onc(-c2c(F)cccc2Cl)c1C(=O)NC1=NCCS1
  0.5	-1.6	-1.1%	-1.9	4.8%	-25.8%
O=C(CN(C1CCCCC1)S(=O)(=O)c1ccc(Br)cc1)NCc1ccncc1
  1.5	-8.0	0.6%	-0.4	0.8%	-1.5%
COc1ccc(-n2nc(C(=O)N3CCN(c4cccc(C)c4C)CC3)c3c4ccccc4n(C)c3c2=O)cc1Cl
  0.2	3.1	-14.4%	/	/	/
O=C(Cn1[nH]c(=O)c2ccccc2c1=O)NC1CCCCCC1
  0.2	14.6	194.0%	0.3	4.0%	2.1%
Cc1ccc(NC(=O)c2ccc3c(=O)n4c(nc3c2)CCCCC4)nc1
  -0.7	6.2	-3.8%	/	11.9%	-5.1%
CCOc1ccc(C(=O)c2oc3ccccc3c2NC(=O)Cc2coc3ccc(CC)cc23)cc1
  0.2	6.6	-2.6%	/	/	/

# Additional results follow:
# Screens in order – TRPML1 ag	TRPML1 inh	ClpP mod	Menin MLL FP FL	gsp ag	gsp antagonist
Cc1ccc(CC(=O)NC2CCN(Cc3ccccc3)CC2)cc1
  -0.3	-0.4	0.3%	-2.2	-2.1%[15.4 µM]	8.5%
CCOC(=O)C1(Cc2ccccc2C)CCCN(C(=O)COC)C1 (stereo not drawn)
  -0.4	-7.1	-2.0%	0.3	-40.7%[inhibitor]	0.5%
CCOC(=O)c1c(N)nn(C(=O)C(C)C)c1-c1ccc(OC)cc1
  1.4	3.5	1.3%	1.6	13.5%	-25.5%
Nc1c(C(=O)NCCc2ccccc2)nnn1Cc1ccc(Br)cc1F
  2.8	13.8	/	-5.4	11.0%[15.4 µM]	-4.0%
